Assay outcomes from PubChem.
RE007 growth inh – less growth of the S. pombe RE007 Vpr strain; S. pombe RE007 Vpr strain, BacTiter-Glo ATP luminescence, 24 h; control for the full effect not named in the record; Potency, µM (doses to about 92.2 µM), for the others: top-dose activity change, negative = less growth; actives 0.21% (n = 360,000); active = well fitted falling curve with a large enough effect; inconclusive = small, poorly fitted or top-dose-only effect; inactive = no such curve, though single readings can be large or run the other way;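 note: nearly all actives have a fitted effect of over 50% in size; the assay follows cell death caused by Vpr and the record does not say whether a fall means rescue or toxicity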
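Fission yeast strain RE007, carrying one chromosomally integrated HIV-1 vpr copy, was seeded at OD 0.01 in PMG+AL medium with 23 nL pinned compound. After 24 h at 30 °C and 99% humidity, viability was read by BacTiter-Glo luminescence.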
StopGo reporter – FMDV 2A StopGo reporter, luciferase signal; Potency, µM (highest dose often 57.9 µM), inactives show at the highest dose signal change, negative = less light; AID 1159524; human cells with a luciferase reporter of 2A StopGo recoding; control for the full effect not named in the record; actives 1.2% (n = 410,000); active = well fitted falling curve with a large enough effect; inconclusive = small, poorly fitted or top-dose-only effect; inactive = no such curve, though single readings can be large or run the other way; tested in HEK293T cells; note: nearly all actives have a fitted effect of over 45% in size; luciferase light after 4 h
Active calls of the source: *; ? = inconclusive; [ ] = remark or other dose. % is set by controls: 0 for no effect and ±100 for the full control effect; potency is the fitted concentration of half-maximal effect. An excerpt. The share of hits here may be higher or lower than overall.

SMILES	RE007 growth inh	StopGo reporter
Cc1cccc(CNC(=O)c2sc(=O)n(Cc3c(C)cccc3C)c2C)c1	43%[18.4 µM]	-5%
CCOC(=O)C[C@H]1c2ccc(C(F)(F)F)cc2S(=O)(=O)N1c1ccccc1	-14%	102%[activator]
COc1ccc(C(=O)N2CCC2(C)C(=O)NC(C)C)cc1OC (stereo not given)	-4%	-21%
CCOC(=O)[C@]12CCC=C1N(Cc1ccc(Cl)cc1Cl)C(=O)[C@H](CC(=O)NCc1ccc(OC)c(OC)c1)C2	5%	?
COCCNc1nc(Nc2ccc(C#N)cc2)c2sccc2n1	-6%	?
O=C(CC[C@H]1O[C@@H](n2cnc3c(NC(=O)c4ccccc4)ncnc32)[C@H](O)[C@@H]1O)NCCCN1CCCC1=O	11%	-12%
COc1cccc(-c2cnc(C(O)c3ccc(-c4ccccc4)cc3)[nH]2)c1 (stereo not given)	-14%[18.4 µM]	2%
COc1ccc(C(NC(=O)C2CCN(CCOc3ccc(Cl)cc3Cl)CC2)c2ccccc2C)cn1 (stereo not given)	2%	-25%
O=S(=O)(c1cccc(C(F)(F)F)c1)N1Cc2ccccc2-n2nncc2C1	1%	-22%
CCOC(=O)C1CCCN(C(=O)c2cccc(OC(F)(F)F)c2)CC1 (stereo not given)	6%[18.4 µM]	-2%
CN1CCN(c2ccc3c(c2)OC[C@H](Cc2ccccc2)NS3(=O)=O)CC1	-11%	-15%
CCOC1=C2CN(S(=O)(=O)c3ccc(C)cc3)[C@H](c3ccccc3)C[C@@H]2N(S(=O)(=O)c2ccc(C)cc2)[C@H](c2ccccc2)C1	-22%	?
NN=C1C(Cl)=C(Cl)C(Cl)=C1Cl	-7%	-16%
Cn1nc(C(C)(C)C)cc1C(=O)N1CCCCC1c1cc(C(=O)NCc2ccccc2)no1 (stereo not given)	3%[18.4 µM]	?
Cc1ccc(NC(=O)[C@@H]2O[C@H](CO)[C@H](O)[C@H](O)[C@H]2O)cc1C(F)(F)F	13%	-5%

One compound at a time, as listed above:
COc1ccc(C(NC(=O)C2CCN(CCOc3ccc(Cl)cc3Cl)CC2)c2ccccc2C)cn1 (stereo not given) is entered as RE007 growth inh = 2%; StopGo reporter = -25%
CN1CCN(c2ccc3c(c2)OC[C@H](Cc2ccccc2)NS3(=O)=O)CC1 is entered as RE007 growth inh = -11%; StopGo reporter = -15%
NN=C1C(Cl)=C(Cl)C(Cl)=C1Cl is entered as RE007 growth inh = -7%; StopGo reporter = -16%

Carrying on.
SMILES	RE007 growth inh	StopGo reporter
COc1cccc(C(O)c2nc(-c3ccc(F)c(Cl)c3)cs2)c1 (stereo not given)	?	-13%
CC(C)(C)c1ccc(CC(=O)N2CCC2(C)C(=O)Nc2ccc(F)cc2F)cc1 (stereo not given)	-9%[18.4 µM]	?
COc1ccc(C=C2Cc3ccccc3C2=O)cc1	3%[18.4 µM]	34%[activator]
O=C(NCc1ccccc1)C1(C(F)(F)F)C/C(=C/CCO)CCCO1 (stereo not given)	-6%	-11%
N#Cc1ccc(-c2nc3c4ccccc4ccn3c2Cc2ccsc2)cc1	-10%	4%
CCC(c1nnnn1-c1ccc2c(c1)OCCO2)N1CCN(c2ccccn2)CC1 (stereo not given)	-23%	-19%
FC(F)(F)c1cccc(N2CCCCC2)c1	9%	-14%
C[C@@H]1CN([C@H](C)CO)C(=O)c2c(c3ccccc3n2C)-c2ccccc2CO[C@H]1CN(C)C(=O)NC1CCCCC1	0%	?
CC1(C(=O)NCCC#N)CCN1C(=O)CC(c1ccccc1)c1ccccc1 (stereo not given)	2%[18.4 µM]	-1%
CCNC(=O)C1CCCN(C(=O)c2ccc(F)c(Cl)c2)CC1 (stereo not given)	5%[18.4 µM]	-6%
Cc1cccc(-c2nnc(C(C)Nc3cccc(C(=O)NC4CC4)c3)o2)c1 (stereo not given)	5%	13%
O=C(NCc1ccccc1)c1cc(C2CCCCN2C(=O)c2ccc3c(c2)CCO3)on1 (stereo not given)	0%	-9%
CCCCCCCCN1C(=O)[C@H](CC(=O)NCCc2ccccc2OC)C[C@@]2(C(=O)OCC)CCCC=C12	7%	-18%
Cc1ccccc1C(=O)N1CCC2CC1c1cc(Cl)ccc12 (stereo not given)	-7%	-5%
CSc1ccc(CN2C(=O)C(C)Oc3c(C(C)=O)cccc32)cc1 (stereo not given)	-6%	-27%

An excerpt from further up, as a working copy:
SMILES	RE007 growth inh	StopGo reporter
CC1(C(=O)NCCC#N)CCN1C(=O)CC(c1ccccc1)c1ccccc1 (stereo not given)	2%[18.4 µM]	-1%
CCNC(=O)C1CCCN(C(=O)c2ccc(F)c(Cl)c2)CC1 (stereo not given)	5%[18.4 µM]	-6%
Cc1cccc(-c2nnc(C(C)Nc3cccc(C(=O)NC4CC4)c3)o2)c1 (stereo not given)	5%	13%
O=C(NCc1ccccc1)c1cc(C2CCCCN2C(=O)c2ccc3c(c2)CCO3)on1 (stereo not given)	0%	-9%
CCCCCCCCN1C(=O)[C@H](CC(=O)NCCc2ccccc2OC)C[C@@]2(C(=O)OCC)CCCC=C12	7%	-18%
Cc1ccccc1C(=O)N1CCC2CC1c1cc(Cl)ccc12 (stereo not given)	-7%	-5%

Rewritten as labelled records: 4 of the compounds above.
COc1ccc(C=C2Cc3ccccc3C2=O)cc1
- RE007 growth inh: 3%[18.4 µM]
- StopGo reporter: 34%[activator]

CCNC(=O)C1CCCN(C(=O)c2ccc(F)c(Cl)c2)CC1 (stereo not given)
- RE007 growth inh: 5%[18.4 µM]
- StopGo reporter: -6%

CC1(C(=O)NCCC#N)CCN1C(=O)CC(c1ccccc1)c1ccccc1 (stereo not given)
- RE007 growth inh: 2%[18.4 µM]
- StopGo reporter: -1%

CSc1ccc(CN2C(=O)C(C)Oc3c(C(C)=O)cccc32)cc1 (stereo not given)
- RE007 growth inh: -6%
- StopGo reporter: -27%

Later entries
SMILES	RE007 growth inh	StopGo reporter
Cn1cccc([N+](=O)[O-])c1=O	-7%	0%
COCCNC(=O)C1(C)CCCN(C(=O)c2ccc(N(C)C)cc2)C1 (stereo not given)	27%[18.4 µM]	-9%
CC(C)Oc1cc(F)ccc1-c1cc(C(=O)Nc2ccc(C(C)C)cc2)[nH]n1	-1%	-11%
CN1C(=O)c2ccccc2Cc2c(NCc3ccccc3)ncnc21	-2%	?
C=Cc1ccc(Cn2c(C)c(C(=O)NCc3cccc([N+](=O)[O-])c3)sc2=O)cc1	5%[18.4 µM]	-24%
CCc1ccc2c(c1)NC(=O)C2(C)Cc1ccccc1C#N (stereo not given)	16%	?
CC[C@@H](NCCCn1ccc(NC(=O)OCc2ccccc2)nc1=O)c1ccccc1	-25%	-8%
O=C(COC(=O)c1cc(S(=O)(=O)N2CCOCC2)ccc1Cl)c1ccc[nH]1	-8%	-20%
Cc1ccc(C)c(NC(=O)C2(C)CCN2C(=O)C(C)C)c1 (stereo not given)	-5%[18.4 µM]	3%
C[C@@H]1CN(S(=O)C(C)(C)C)[C@H](CCO)/C1=C\c1ccccc1 (stereo not given in full)	5%	-11%
Cc1ccc([C@H]2N[C@]3(CCCN(Cc4ccc(Br)cc4)C3=O)[C@H]3C(=O)N(C)C(=O)[C@@H]23)cc1	18%	-15%
N#CC1(CCCN2CCCCC2)c2ccccc2CCc2ccccc21	10%	-8%
O=C(NCCN1CCC(n2c(=O)[nH]c3ccccc32)CC1)c1cccnc1	-7%	-21%
CC1(C(=O)NC2CCN(Cc3ccccc3)CC2)CCN1Cc1cc2ccccc2o1 (stereo not given)	-13%[18.4 µM]	2%
C[C@@H]1CN(C2CCC(C#N)(c3ccc(F)cc3)CC2)CC[C@]1(C(=O)O)c1ccccc1 (stereo not given in full)	10%	0%
CCC(=O)N1CCCC1(C)C(=O)Nc1ccc2c(c1)CCN2C(C)=O (stereo not given)	3%[18.4 µM]	-7%
CCCCNc1c(CCc2ccccc2)nc2nc(C)cc(C)n12	-16%	-15%
CC(C)C[C@@H](CN)NC(=O)c1nc[nH]c1C(=O)N[C@@H](Cc1ccccc1)C(=O)CNC[C@H](C)NC(=O)c1nc[nH]c1C(=O)N[C@@H](CC(=O)O)C(=O)O	5%	-25%
COc1ccccc1Nc1cc2cc(Br)ccc2c(=O)[nH]1	-10%	-19%
COc1cccc(N(CC(=O)N2CCN(Cc3ccccc3)CC2)S(C)(=O)=O)c1	11%	-20%
Cc1c(C(=O)c2ccc(F)cc2F)c2ccccn2c1CCc1ccccn1	3%	?
CS(=O)(=O)c1ccc2nc(NC(=O)C3CC3)sc2c1	15%	15%
COc1ccc(Cl)cc1-c1cc(C(=O)Nc2ccccc2)[nH]n1	-28%	36%[activator]
Cc1ccc2c(Cl)c(Cc3ccccc3)c(=S)[nH]c2n1	-6%	-20%
O=C(Nc1ccc(F)cc1)C(c1ccncc1)N1CCN(c2cccc(C(F)(F)F)n2)CC1 (stereo not given)	5%	-24%
CC(C)n1nnnc1C1c2ccccc2C(=O)N1Cc1ccc(F)cc1 (stereo not given)	24%	16%
COc1ccc(Cc2c(-c3cccc(Br)c3)nc3c(C)cc(Br)cn23)c(C)c1	5%	-13%
CC(C)C[C@@H](CN1CCCC1CN1C(=S)NC[C@@H]1Cc1ccc(O)cc1)N1C[C@H](Cc2ccccc2)N(CCc2ccccc2)C1=S (stereo not given in full)	-21%	-30%
CCCS(=O)(=O)NC(=O)C1(C)CCN(C(=O)c2ccc3c(c2)OCO3)C1 (stereo not given)	0%[18.4 µM]	-10%
COc1cc(/C=C/CO)ccc1O[C@@H]1O[C@H](CO)[C@@H](O)[C@H](O)[C@H]1O	-14%	-22%
Cc1ccn2c(=S)[nH]nc2c1	3%	-11%
Cc1ccc(Cn2cc(CN3CC(N4CCN(C)CC4)CS3(=O)=O)nn2)cc1 (stereo not given)	4%	-22%
CN(C1CCCCC1)S(=O)(=O)c1ccc(SCC(=O)C(C)(C)C)nc1	-16%	-24%
C[C@H]1CN([C@@H](C)CO)C(=O)CCCn2nncc2CO[C@H]1CN(C)S(=O)(=O)c1ccc(F)cc1	4%	8%
CCNC(=O)C1(C)CCCN1C(=O)c1cnc2ccccc2n1 (stereo not given)	-2%	-5%
CSc1ccc(Cn2c(C)c(C(=O)NCc3cccc(C(F)(F)F)c3)sc2=O)cc1	-15%[18.4 µM]	-29%
Clc1ccc2nc(-c3ccccc3)c(Cc3ccsc3)n2c1	8%	24%
COc1ccc(CCC(=O)Nc2ccc(N3CCOCC3)c(S(=O)(=O)Nc3ccc(OC)cc3)c2)cc1	-16%	52%[activator]
O=C1NCN(c2ccccc2)C12CCN(C(c1cccs1)c1nnnn1-c1ccc3c(c1)OCCO3)CC2 (stereo not given)	-3%	16%
O=C1N[C@H](Cc2ccccc2)C(=O)N[C@H]1Cc1cn(S(=O)(=O)c2ccccc2)c2ccccc12	0%	-11%
Cc1[nH]c(=O)sc1C(=O)NCc1ccc([N+](=O)[O-])cc1	-20%[18.4 µM]	-21%
Cc1ccccc1NC(=O)C(C)OC(=O)CCC(=O)c1ccccc1 (stereo not given)	-10%	-5%
OC[C@@H]1CN(Cc2cccc3ccccc23)C[C@H](n2cnc3c(NCc4ccco4)ncnc32)O1	0%	-17%
O=C(NCc1ccc(F)cc1)c1cc(C2CCCCN2S(=O)(=O)c2cccc3cccnc23)on1 (stereo not given)	0%	-20%
CCOC(=O)[C@]12Cc3ccc(C)cc3[C@H]1N(C1CCCCC1)C(=O)c1cc(OC)ccc12	16µM*	28µM*
Cc1onc(-c2ccccc2Cl)c1C(=O)N(Cc1ccc(N(C)C)cc1)C(C)C	3%	?
CCCOc1ccc(F)cc1-c1cc(C(=O)Nc2ccc(OC)nc2)[nH]n1	-6%	-18%
COc1ccccc1S(=O)(=O)N(C)C[C@H]1Oc2ncc(Br)cc2C(=O)N([C@H](C)CO)C[C@H]1C	20%	-24%
CC(c1nc2ccccc2[nH]1)n1c(-c2ccncc2)nc2ccccc21 (stereo not given)	-12%	-19%
O=C(COC(=O)c1ccc(F)c(S(=O)(=O)N2CCOCC2)c1)Nc1ccc(Cl)cn1	-9%	-3%
CCOc1cc(N2CCOCC2)c(OCC)cc1NS(=O)(=O)c1ccc2c(c1)CC(=O)N2	15%	-7%
O=[N+]([O-])c1cccc(COc2cccc(CN3CCCC3)c2)c1	-26%	-7%
CCCCn1c(N)c(N(CC(C)C)C(=O)c2cc(Br)c(Br)s2)c(=O)[nH]c1=O	-2%	-19%
CCOCCC(=O)Nc1ccc2c(c1)c(=O)n(C)n2-c1ccccc1F	1%	11%
O=C(Nc1ccccc1Cl)c1cc(C2CCCN(C(=O)c3ccc4c(c3)CCO4)C2)on1 (stereo not given)	-9%	-24%
Fc1cccc(F)c1[B-](F)(F)F	-8%	-6%
CCCCC[C@@H](C)N1C[C@@H](COCc2ccccc2)Oc2cc(N3CCC[C@@H]3CO)ccc2S1(=O)=O	20%	-2%
O=C(CCNC(=O)N1CC(=O)Nc2ccccc21)NCc1ccccc1Cl	-13%	-11%
Cc1ccc(Cn2cc(CN3CC(N4CCN(C5CCN(C)CC5)CC4)CS3(=O)=O)nn2)cc1 (stereo not given)	5%	-6%
COc1ncnc2c1ncn2CCCNC1CCN(Cc2ccccc2)CC1	-20%	0%
COC[C@@H]1CCCN1[C@@H]1CS(=O)(=O)N[C@H]1COCc1ccccc1	-1%	-5%
O=C(Nc1ccc2c(c1)CCC2)c1cccc(OC(F)F)c1	-21%	0%
